FEN1 inhibitor: human FEN1 inhibition; Potency, µM (highest dose often 114 µM), for inactives: at the top dose activity change, negative = inhibition, actives largely listed as inhibitors; Recombinant FEN1 flap cleavage, fluorescence, 15 min; P39748; 0.35% of 390,000 active; note: nearly all actives have a fitted effect of over 65% in size
Target sequence (P39748 whole entry, looked up): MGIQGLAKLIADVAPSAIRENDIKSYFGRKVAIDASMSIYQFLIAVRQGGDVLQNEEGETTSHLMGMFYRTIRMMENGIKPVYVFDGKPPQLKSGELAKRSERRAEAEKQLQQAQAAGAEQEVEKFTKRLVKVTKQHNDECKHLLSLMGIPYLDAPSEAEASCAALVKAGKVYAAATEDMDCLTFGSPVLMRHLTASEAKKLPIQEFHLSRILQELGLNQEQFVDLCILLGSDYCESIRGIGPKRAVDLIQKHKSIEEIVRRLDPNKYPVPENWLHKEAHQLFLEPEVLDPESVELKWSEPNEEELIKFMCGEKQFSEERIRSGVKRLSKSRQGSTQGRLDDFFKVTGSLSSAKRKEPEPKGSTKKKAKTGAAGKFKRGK
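Reaction started by adding substrate (50 nM final) to 10 nM enzyme after 15 min room-temperature compound preincubation. Reads at 0 and 15 min, with data normalized and fitted to a four-parameter Hill equation.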
TDP1 cell CPT: growth inhibition of DT40 Tdp1-/-;hTDP1 cells with camptothecin (screen for TDP1 inhibitors); chicken DT40 Tdp1-/-;hTDP1 cells + 20 nM CPT, ATP luminescence, 48 h; Potency, µM (series often up to 46.2 µM), without a hit: top-dose activity change, negative = growth inhibition, actives largely listed as inhibitors; 12% of 420,000 active; AID 686979; note: nearly all actives have a fitted effect of over 55% in size
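Chicken DT40 Tdp1-/- cells stably complemented with human TDP1 were seeded at 400 cells/well in medium containing 20 nM camptothecin, exposed to pin-transferred compounds, and grown at 37 °C for at least 48 hr. Viability was read as ATP luminescence.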
* hit, by the source's call; ? = inconclusive; & = joins results of further samples; [ ] = remark or other dose. Calls come from the whole dose curve; as a rule, active = well fitted curve in the direction sought with a large enough effect; inconclusive = small, poorly fitted or top-dose-only effect, or another doubt; inactive = no such curve, though single readings can be large; an effect the other way counts as inactive or inconclusive. % is set by controls: 0 for no effect and ±100 for the full control effect; potency is the fitted concentration of half-maximal effect.

A first look:
nr	SMILES	FEN1 inhibitor	TDP1 cell CPT
1	CC(C)c1ccc(S(=O)(=O)Nc2ccc(N3CCOCC3)cc2)cc1	-2%	0%
2	CC(C)OCCCNC(=O)CN1CCN(Cc2ccc(Cl)cc2)C1=O	-4%	3%
3	Cc1ccccc1CS(=O)(=O)Cc1ccc(C(=O)NCc2ccccn2)o1	3%	-20%

The whole of this part, previewed entries included:
nr	SMILES	FEN1 inhibitor	TDP1 cell CPT
1	CC(C)c1ccc(S(=O)(=O)Nc2ccc(N3CCOCC3)cc2)cc1	-2%	0%
2	CC(C)OCCCNC(=O)CN1CCN(Cc2ccc(Cl)cc2)C1=O	-4%	3%
3	Cc1ccccc1CS(=O)(=O)Cc1ccc(C(=O)NCc2ccccn2)o1	3%	-20%
4	COc1ccc(NC(=O)Cc2cccc3ccccc23)cc1	2%	-9%
5	Nc1c2c(nc3c1CCCC3)CCCC2 (tested in a mixture with another compound)	-3%	31%[activator]
6	Cc1cc(/C=N/NC(=O)c2cccs2)c(C)n1-c1cnccn1	-11%	11%
7	C/C(=N\O)C(=O)NCc1ccncc1	1%	0%
8	COCCCNC(=O)c1ccccc1Sc1ccc(NC(C)=O)nc1	-3%	-4%
9	CCCC[C@@H]1CNC(=O)C(=O)N1CCCc1cc(OC)c(OC)c(OC)c1	48%[activator]	0%
10	Cc1ccc(C(=O)Nc2ccc(N3CCOCC3)cc2N2CCOCC2)cc1	-10%	?
11	O=C(c1cccc([N+](=O)[O-])c1)N1CCCC(C(=O)N2CCN(c3ccccc3)CC2)C1 (stereo not given)	6%	2%
12	Cc1cccc(Nc2nc(N)nc(CN3CCC(C(N)=O)CC3)n2)c1C	-2%	0%
13	COc1ccccc1C(=O)NCCC(=O)N(C)CC(=O)Nc1ccc(C)cc1	4%	5%
14	CCN(C(=O)COC(=O)c1cccc(S(=O)(=O)N(CC)CC)c1)C1CCS(=O)(=O)C1 (stereo not given)	6%	-19%
15	Cc1ccc(-c2nnc(N3CCN(C(=O)CSc4ncn[nH]4)CC3)c3ccccc23)cc1	-5%	16µM*
16	CN(CC(=O)Nc1ccc([N+](=O)[O-])cc1Br)Cc1c(F)cccc1Cl	-8%	?
17	COc1ccc(C2(C(=O)N3CCCC3)CCOCC2)cc1OC	16%	-17%
18	CN(C)S(=O)(=O)c1cccc(C(=O)NC2CCSc3ccccc32)c1 (stereo not given)	10%	?
19	CCCCCCCCCCn1ccc(=N)cc1	7%	0.0058µM*
20	O=C1C(=O)N(CCCn2ccnc2)C(c2ccc(Br)cc2)/C1=C(\O)c1ccc2c(c1)OCCO2 (stereo not given)	17%	-4%
21	COc1ccccc1CCCNC(=O)C1CCC(=O)N(CCc2cccc(F)c2)C1 (stereo not given)	11%	?
22	CC1CCCN(Cc2c(O)ccc3c(=O)c(-c4ccc(Cl)cc4)coc23)C1 (stereo not given)	11%	-1%
23	CC(=O)N(Cc1cc(=O)[nH]c2ccccc12)c1ccccc1	-3%	-13%
24	O=C(Nc1ccccc1)OCc1cncs1	4%	-17%
25	O=C(CCSCCC(=O)NCc1ccc(F)cc1)NCc1ccc(F)cc1	6%	?
26	CCN1CCN(CC(=O)N/N=C/c2cc(Br)cs2)CC1	-8%	1%
27	O=C(N/N=C1\CCCc2ccccc21)c1ccccc1Cl	-8%	2.1µM*
28	Cn1nc(C(=O)NCc2ccco2)c2ccccc2c1=O	0%	7%
29	NC(=O)CC(NC(=O)c1cccc(Br)c1)c1ccc(NC2CCCCCCC2)c([N+](=O)[O-])c1 (stereo not given)	-5%	?
30	COc1ccc(CC(=O)OCC(=O)NCc2ccc(Cl)cc2)cc1	-1%	9%
31	O=C(c1cccn(Cc2ccc(Cl)c(Cl)c2)c1=O)N1CCOCC1	-1%	-18%
32	COC(=O)c1ccc(COC(=O)c2ccccn2)cc1	4%	-11%
33	O=C(Nc1ccc(Cl)cc1)Nn1cnnc1	-11%	-23%
34	COc1ccccc1-c1cc(C(=O)Nc2cc(C)nn2-c2ccccc2)no1	-10%	18µM*
35	Cc1cc(C)c(C)c(S(=O)(=O)NNC(=O)c2cccc(S(=O)(=O)N3CCOCC3)c2)c1C	8%	-16%
36	Cc1cc2nnc(SCC(=O)Nc3cc(S(=O)(=O)N4CCOCC4)ccc3Cl)n2c2ccccc12	0%	?
37	O=S(=O)(NCC1CC1)c1ccc(F)c(Cl)c1	-11%	8%
38	CC(=O)c1ccc(NC(=O)c2cc(=O)[nH]c3ccccc23)cc1	-4%	-29%
39	O=C(CCn1c(=O)[nH]c2ccccc2c1=O)N1CCN(c2ccc(Cl)cc2)CC1	5%	?
40	CCOc1ccc2[nH]c(=O)c(CN(CC3COCCO3)C(=O)c3ccc(C)cc3)cc2c1 (stereo not given)	-11%	?
41	Cc1ccccc1S(=O)Cc1ccc(C(=O)NC2CC2)o1 (stereo not given)	7%	3%
42	CC(=O)c1cc(-c2ccccc2)n(CC(=O)Nc2cccc(C)c2)c1C	-1%	18µM*
43	CN(C)S(=O)(=O)N1CCN(c2cc(Cl)ccc2Cl)CC1	15%	2%
44	CC(C)CCOc1ccc(C2CC(=O)N(C)C2=O)cc1 (stereo not given)	-16%	-14%
45	O=C(O)C1CCCN1S(=O)(=O)c1ccc(Cl)cc1 (stereo not given)	-15%	12%
46	Cc1cc(C)cc(-c2nc(-c3ccncc3)no2)c1	-2%	?
47	O=C(NC1=NCCS1)c1sc2cc(F)ccc2c1Cl	-4%	-3%
48	Cc1cc(Nc2ccccc2O)c2ccccc2n1	-10%	?
49	CC(=O)Nc1ccc(NC(=O)c2ccccc2CC[N+](=O)[O-])cc1	0%	9%
50	Cc1cc([N+](=O)[O-])nn1CC(=O)Nc1nc2ccccc2s1	2%	4%

Other results follow.
nr	SMILES	FEN1 inhibitor	TDP1 cell CPT
51	CCOC(=O)C1=C(CNC2CCCCC2)NC(=O)NC1c1cc(C)ccc1C (stereo not given)	1%	26µM*
52	Cc1ccc(N2CN(Cc3ccco3)CNC2=S)cc1	-1%	21%
53	O=C(NNC(=O)c1ccccc1[N+](=O)[O-])c1ccccn1	5%	?
54	Cn1c(SCC(=O)NC(=O)CN2CCCC2=O)nnc1-c1ccc(F)cc1	3%	1%
55	Fc1ccccc1NC(=S)NCc1ccccc1	9%	-10%
56	CCCCCCNC(=O)c1ccc(Br)o1	4%	-11%
57	Cc1ccc(NC(=O)CN(C)C(=O)COc2c(Cl)cc(Cl)c3ccc(C)nc23)cc1	13%	-17%
58	CCOC(=O)Cc1csc(/N=C/c2c(O)n(-c3ccccc3C(F)(F)F)c(=O)c3ccccc23)n1	-1%	21µM*
59	Cc1ccc(NC(=O)C[n+]2cc(-c3ccc(C)cc3)n3c2CCC3)cc1	8%	4.1µM*
60	O=C(c1ccccc1)c1ncc(C(F)(F)F)cc1Cl	7%	-9%
61	CCOC(=O)N1CCC(=NNC(=O)c2ccccc2F)CC1	-4%	-3%
62	Cc1ccnc(NS(=O)(=O)c2ccc(NC(=O)c3ccccc3F)cc2)n1	1%	-11%
63	Cc1ccc(C(=O)OCc2nnc(-c3ccccc3)o2)cc1S(=O)(=O)N1CCOCC1	-1%	-3%
64	CCCCn1c(N)c(N(CCC(C)C)C(=O)C2=COCCO2)c(=O)[nH]c1=O	-5%	10%
65	O=[N+]([O-])c1cccc(C(=Nc2ccccc2Cl)NO)c1	-4%	2%
66	CCOC(=O)c1sc(NC(=O)C2=COCCO2)c(C#N)c1C	-6%	-24%
67	Cc1ncc(CO)c(/C=N/N=C/c2ccccc2O)c1O	-1%	-15%
68	CCCCNC(=O)N1CCN(C(c2ccccc2)c2ccccc2)CC1	15%	-23%
69	CN(C)S(=O)(=O)c1ccc(N2CCCC2)c(C(=O)NCCc2ccc(F)cc2)c1	-14%	-28%
70	O=C(Nc1ccc([N+](=O)[O-])cc1)c1cc(-c2ccccn2)nc2c(Cl)cccc12	-7%	?
71	CC(C)OP(=O)(OC(C)C)C(Nc1ccccc1)c1cccnc1 (stereo not given)	12%	-7%
72	COc1ccc(C(=O)c2cnc[nH]2)cc1OC	16%	1%
73	O=c1sc2ccccc2n1CCCOc1ccccc1	16%	-5%
74	CN1CC(=O)Nc2ccc(Br)cc2C1=O	14%	-3%
75	NC(=S)Cc1nc(-c2ccccc2)cs1	0%	?
76	O=C(COc1ccc2ccc(=O)oc2c1)NC1CCN(Cc2ccccc2)CC1	-6%	-10%
77	CCOc1c(Cl)cc(CNCC(O)c2ccccc2)cc1OC (stereo not given)	13%	?
78	NS(=O)(=O)Oc1ccccc1	-2%	2%
79	O=C(OCc1cc2ccccc2[nH]c1=O)C1CCCCC1	8%	-14%
80	O=C(COc1ccccc1Cc1ccccc1)NCCCN1CCOCC1	9%	?
81	CCc1ccc(N(C(=O)c2csnn2)C(C(=O)NC(C)(C)C)c2cccnc2)cc1 (stereo not given)	-7%	-4%
82	Cc1ccc(OCC(=O)NCCc2nc3ccccc3[nH]2)c(C)c1	-8%	?
83	COC(=O)N1C(=O)[C@@](c2ccccc2)(C2CCCC2)N1C(=O)OC	-11%	15µM*
84	Cc1cccc(N2CCN(C(=O)c3cn(C)c(=O)c4c3c3ccccc3n4C)CC2)c1C	-8%	22µM*
85	O=[N+]([O-])c1ccc(-c2nnc(-c3ccccc3)c(NCCCO)n2)cc1	0%	21µM*
86	COc1ccc(C(=O)N2CCCC(CCC(=O)NCc3ccc(F)c(F)c3)C2)cc1F (stereo not given)	-5%	?
87	O=C(COC(=O)c1cccs1)NCCCc1ccccc1	-17%	3%
88	COc1ccc(NC(=O)CN(C)C(=O)c2ccccc2SCC(=O)N2CCCC2)cc1	-4%	-8%
89	O=[N+]([O-])c1ccccc1/C=N/n1c(-c2ccccc2)n[nH]c1=S	6%	15%
90	O=C(Nc1ccc(Nc2ccccc2)cc1)c1cc([N+](=O)[O-])ccc1Cl	-18%	?
91	CC1Cc2cc(S(=O)(=O)CCC(=O)NCc3ccco3)ccc2N1C(=O)C1CC1 (stereo not given)	23%	6.5µM*
92	CCCCc1c(O)nc2sc3cc(OC)ccc3n2c1=O	-16%	-3%
93	Fc1ccccc1NC(=S)Nn1cnnc1	-9%	?
94	COc1ccccc1N=Nc1ccc(N)c(C)c1	-8%	-13%
95	CCOc1cccc(C(=O)Nc2ccccc2OC(F)F)c1	-10%	?
96	C=CCN(CC(=O)NC1CCS(=O)(=O)C1)S(=O)(=O)c1ccccc1C(F)(F)F (stereo not given)	16%	-12%
97	CCN(CC)S(=O)(=O)c1ccc(N2CCOCC2)c(NC(=O)CNCCc2ccccc2)c1	9%	18µM*
98	CCCc1ccc(-c2ccc(C(=O)O)cc2)nc1	-3%	5%
99	COc1cc(-c2noc(C)c2C#Cc2ccccn2)cc(OC)c1OC	-18%&-33%	0.65µM*
100	COc1ccc(C(=O)COC(=O)CCc2nc3ccccc3[nH]c2=O)cc1Br	-2%	14%

Given with each value named: two of the compounds above
29. NC(=O)CC(NC(=O)c1cccc(Br)c1)c1ccc(NC2CCCCCCC2)c([N+](=O)[O-])c1 (stereo not given)
  FEN1 inhibitor: -5%
  TDP1 cell CPT: ?
80. O=C(COc1ccccc1Cc1ccccc1)NCCCN1CCOCC1
  FEN1 inhibitor: 9%
  TDP1 cell CPT: ?

Next part
nr	SMILES	FEN1 inhibitor	TDP1 cell CPT
101	CNC(=O)CSc1nc2c(c(=O)n(C)c(=O)n2C)n1Cc1ccc(C)cc1	-3%	0%
102	Cc1ccc(N=C2NC(=O)/C(=C/c3cccn3C)S2)c(C)c1	-2%	?
103	COc1ccc2cc(C3(C)NC(=O)N(CC(=O)NCCC4=CCCCC4)C3=O)ccc2c1 (stereo not given)	-14%	?
104	COc1cc(/C=N\Nc2cc(=O)n(C)c(=O)n2C)ccc1O	-19%	?
105	COc1ccc(NC(=O)N/C=C/c2ccc(Cl)cc2)cc1	-7%	4%
106	Cc1ccc(SCC(=O)Nc2ccc3c(c2)C(=O)NC3=O)cc1	9%	-3%
107	CC1(C)Cc2cccc(OCC(O)CN3CCN(c4ccccn4)CC3)c2O1 (stereo not given)	-11%	?
108	Cc1ccc(CN2C(=O)CSC(C)C2=O)cc1 (stereo not given)	-7%	34%[activator]
109	Cc1cc(C)nc(NS(=O)(=O)c2ccc(NC(=O)c3cc(=O)c4ccccc4o3)cc2)n1	-13%	2%
110	Cc1ccc(S(=O)(=O)N2CCN(S(=O)(=O)N(C)C)CC2)cc1	12%	-24%
111	CCOC(=O)C1CCN(C(=O)c2ccc3c(c2)C(=O)N(c2ccccc2C)C3=O)CC1	5%	-5%
112	COc1cccc2cc(/C(=N/O)c3ccc(Br)cc3)oc12	-13%	?
113	Cc1onc(-c2ccccc2)c1C(=O)Nc1cccc2nsnc12	-2%	?
114	COc1ccccc1CNC(=O)c1sccc1C	4%	3%
115	Cc1ccccc1CC(=O)NCc1cccnc1	-1%	-2%
116	S=C1c2ccccc2CN1c1ccccc1	-11%	-13%
117	Cc1cccc(NC(=O)CSc2nnc(CNC(=O)c3ccco3)n2C)c1C	2%	4%
118	C[C@@H](C(=O)NC1CCCCC1)N1C(=O)N2CCc3c([nH]c4ccccc34)[C@@]2(C)C1=O	-13%	?

Source: PubChem BioAssay

Not all compounds are listed; most or all hits stand in other tables.
